A1 apoptosis 2: A1 inhibitors via caspase activation, primary screen, cell-based, luminescence, HTS, two replicates; MEF A1-2A-BIM cells, caspase-Glo luminescence, 3 h; percent of clofoctol response, DMSO zero; caspase activation, % (test concentration not listed); 24,000 tested, under 10 active; AID 2465, 2010; in the data active means caspase activation above about 5.9%; inconclusive means no clear call, values can overlap the other calls; inactive means below about 2.2%;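 further: wells of about 30 µL received 50 nL stock; the first replicate is given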
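system = A1-2A-BIM-expressing MEF cells | quantity = 2500 MEF cells/well | dosing = 50 nL compound per well, pinned | schedule = overnight cell settling, then 3 h compound exposure, 37 °C | signal = luminescence from DEVD-luciferin Caspase-Glo reagent, 1:1 in 50 mM HEPES, 1 h RT | read-out = Caspase-3/7 activation, seen as rise in luminescence signal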
Active calls of the source: *; ? = inconclusive. An excerpt; count on the stated rates, not on these rows.

no.	Molecule	A1 apoptosis 2
1	CNC[C@H]1Oc2ccc(NC(=O)Cn3cnnn3)cc2CC(=O)N([C@@H](C)CO)C[C@H]1C	-0.2
2	CNC[C@H]1Oc2ccc(NC(=O)Cc3ccccc3)cc2CC(=O)N([C@@H](C)CO)C[C@@H]1C	-0.2
3	C[C@H](CO)N1C[C@H](C)[C@@H](CN(C)C(=O)CCCN(C)C)OCCCC[C@H](C)Oc2ccc(NS(=O)(=O)c3cccs3)cc2C1=O	-0.8
4	C[C@H](CO)N1C[C@H](C)[C@H](CN(C)CC2CC2)Oc2ccc(NC(=O)Cc3ccccc3)cc2C1=O	-0.4
5	C[C@H]1CCCCO[C@H](CN(C)C(=O)Nc2ccc(F)cc2)[C@@H](C)CN([C@@H](C)CO)C(=O)c2cc(NC(=O)CCCN(C)C)ccc2O1	0.3
6	C[C@@H]1CN([C@@H](C)CO)C(=O)c2cc(NC(=O)c3ccncc3)ccc2O[C@H]1CN(C)Cc1ccc(-c2ccccc2)cc1	0.4
7	COc1ccc(S(=O)(=O)Nc2cccc3c2O[C@H](CN(C)S(=O)(=O)c2ccccc2)[C@H](C)CN([C@@H](C)CO)C3=O)cc1	-0.3
8	C[C@@H]1CN([C@@H](C)CO)C(=O)c2cccc(NC(=O)Nc3ccc4c(c3)OCO4)c2O[C@H]1CN(C)S(C)(=O)=O	0.3
9	C[C@@H]1CN([C@@H](C)CO)C(=O)c2cc(NC(=O)Nc3cccc4ccccc34)ccc2O[C@@H](C)CCCCO[C@@H]1CN(C)S(=O)(=O)c1cn(C)cn1	0.0
10	COc1ccc(S(=O)(=O)Nc2cccc3c2O[C@H](CN(C)C(=O)NC2CCCCC2)[C@@H](C)CN([C@H](C)CO)C3=O)cc1	0.8
11	C[C@H]1CN([C@@H](C)CO)C(=O)c2cc(NC(=O)NC3CCCCC3)ccc2O[C@@H]1CN(C)C	1.1
12	C[C@H]1CN([C@@H](C)CO)C(=O)Cc2cc(NC(=O)Cc3ccccc3)ccc2O[C@@H]1CN(C)C(=O)Nc1ccc2c(c1)OCO2	1.0
13	C[C@@H]1CCCCO[C@H](CN(C)S(=O)(=O)c2ccc(Cl)cc2)[C@@H](C)CN([C@H](C)CO)C(=O)c2cc(NC(=O)CCCCCC(=O)Nc3ccccc3N)ccc2O1	1.5
14	CC(C)NC(=O)N(C)C[C@H]1OCCCC[C@H](C)Oc2ccc(NS(=O)(=O)c3cn(C)cn3)cc2C(=O)N([C@@H](C)CO)C[C@H]1C	1.5
15	C[C@@H]1CN([C@@H](C)CO)C(=O)CCCn2cc(nn2)CO[C@@H]1CN(C)Cc1cccc2c1OCCCO2	-0.4
16	C[C@@H]1CN([C@@H](C)CO)C(=O)Cc2cc(NC(=O)Nc3cccc4ccccc34)ccc2O[C@H]1CN(C)C(=O)Nc1cccc2ccccc12	0.1
17	C[C@@H]1CN([C@H](C)CO)C(=O)CCCn2nncc2CO[C@@H]1CN(C)C(=O)CCCN(C)C	0.1
18	C[C@H]1CN([C@@H](C)CO)C(=O)c2cccc(NS(=O)(=O)c3ccc(Cl)cc3)c2O[C@@H]1CN(C)C	-0.9
19	C[C@@H]1CN([C@H](C)CO)C(=O)c2cc(NC(=O)c3ccncc3)ccc2O[C@@H](C)CCCCO[C@H]1CN(C)C(=O)Nc1ccc(F)cc1	-0.9
20	C[C@H]1CN([C@@H](C)CO)C(=O)c2cccc(NC(=O)Nc3ccc(F)cc3)c2O[C@H]1CN(C)C(=O)Nc1cccc2ccccc12	1.0
21	NC(=O)C1=C[C@H](c2ccc3c(c2)OCO3)C[C@H](OCc2ccc(CO)cc2)O1	-0.7
22	Cc1noc(C)c1NC(=O)N(C)C[C@@H]1Oc2ccc(NC(=O)Cn3cnnn3)cc2C(=O)N([C@H](C)CO)C[C@@H]1C	-0.3
23	CNC[C@H]1Oc2ccc(NS(=O)(=O)c3cn(C)cn3)cc2CC(=O)N([C@@H](C)CO)C[C@H]1C	0.6
24	COc1ccc(CN(C)C[C@H]2Oc3ccc(NC(=O)Nc4ccc(F)cc4)cc3C(=O)N([C@@H](C)CO)C[C@@H]2C)cc1	-1.2
25	O=C(Nc1ccccc1)C1=C[C@H](c2ccc(C(F)(F)F)cc2)C[C@H](OCc2ccc(CO)cc2)O1	1.1
26	C[C@@H]1CN([C@@H](C)CO)C(=O)Cc2cc(NC(=O)Nc3ccccc3)ccc2O[C@@H]1CN(C)Cc1ccc(-c2ccccc2)cc1	-0.6
27	COc1ccc(S(=O)(=O)N(C)C[C@@H]2Oc3ccc(NS(=O)(=O)c4cn(C)cn4)cc3CC(=O)N([C@H](C)CO)C[C@@H]2C)cc1	-1.2
28	C[C@@H]1CN([C@H](C)CO)C(=O)c2cccc(NS(C)(=O)=O)c2O[C@H]1CN(C)Cc1ccc2c(c1)OCO2	1.2
29	C[C@@H]1CN([C@@H](C)CO)C(=O)Cc2cc(NC(=O)Cc3ccccc3)ccc2O[C@@H]1CN(C)C	0.0
30	CC(C)NC(=O)N(C)C[C@@H]1Oc2c(NC(=O)CCCCCC(=O)Nc3ccccc3N)cccc2C(=O)N([C@H](C)CO)C[C@@H]1C	1.1
31	COc1ccc(NC(=O)N(C)C[C@H]2OCCCC[C@H](C)Oc3ccc(NC(=O)NC(C)C)cc3C(=O)N([C@H](C)CO)C[C@@H]2C)cc1	0.5
32	C[C@H]1CN([C@@H](C)CO)C(=O)CCCn2cc(nn2)CO[C@@H]1CN(C)Cc1ccc(O)cc1	-0.4
33	COc1ccc(S(=O)(=O)Nc2cccc3c2O[C@@H](CN(C)Cc2ccc(C(=O)O)cc2)[C@H](C)CN([C@@H](C)CO)C3=O)cc1	0.3
34	COc1ccc(NC(=O)Nc2cccc3c2O[C@@H](CN(C)S(=O)(=O)c2cccs2)[C@@H](C)CN([C@H](C)CO)C3=O)cc1	-0.1
35	C[C@@H]1CN([C@H](C)CO)C(=O)c2cc(NC(=O)c3ccncc3)ccc2O[C@H]1CN(C)C(=O)Nc1cccc2ccccc12	1.7
36	C[C@H](CO)N1C[C@H](C)[C@H](CN(C)C(=O)Cc2ccccc2)OCCCC[C@H](C)Oc2ccc(NC(=O)Nc3ccc(C(F)(F)F)cc3)cc2C1=O	-0.5
37	C[C@@H]1CCCCO[C@H](CN(C)C(=O)Nc2ccccc2)[C@@H](C)CN([C@H](C)CO)C(=O)c2cc(NC(=O)Cc3ccccc3)ccc2O1	0.7
38	C[C@@H]1CCCCO[C@@H](CN(C)C(=O)CCC(F)(F)F)[C@H](C)CN([C@H](C)CO)C(=O)c2cc(NS(=O)(=O)c3cn(C)cn3)ccc2O1	1.0
39	O=C(N/N=C/c1cc2ccccc2n1S(=O)(=O)c1ccccc1)c1ccccc1O	-0.9
40	CC1=C(C/C=N/NC(=O)CCCCC(=O)NO)C(C)(C)CCC1	0.2
41	C[C@@H]1CCCCO[C@H](CN(C)C(=O)Nc2ccccc2)[C@H](C)CN([C@@H](C)CO)C(=O)c2cc(NC(=O)Nc3ccccc3)ccc2O1	1.0
42	C[C@@H]1CN([C@H](C)CO)C(=O)c2cc(NS(=O)(=O)c3cccs3)ccc2O[C@H]1CN(C)CC1CCCCC1	-0.3
43	C[C@@H]1CCCCO[C@@H](CN(C)CC2CC2)[C@H](C)CN([C@H](C)CO)C(=O)c2cc(NC(=O)Nc3ccc4c(c3)OCO4)ccc2O1	1.0
44	Cc1ccc(S(=O)(=O)N(C)C[C@@H]2Oc3ccc(NC(=O)Nc4ccc(C(F)(F)F)cc4)cc3C(=O)N([C@H](C)CO)C[C@@H]2C)cc1	-1.2
45	C[C@H](CO)N1C[C@H](C)[C@H](CN(C)Cc2cccc(C(F)(F)F)c2)Oc2ncc(-c3cccc(C(F)(F)F)c3)cc2C1=O	-0.4
46	C[C@H](CO)N1C[C@H](C)[C@@H](CN(C)C(=O)NC2CCCCC2)Oc2ccc(NC(=O)Cc3ccccc3)cc2CC1=O	-1.7
47	C[C@@H]1CN([C@@H](C)CO)C(=O)CCCn2nncc2CO[C@H]1CN(C)S(=O)(=O)c1ccccc1	0.8
48	C[C@H](CO)N1C[C@H](C)[C@H](CN(C)C(=O)Nc2ccccc2)Oc2ccc(NC(=O)C3CC3)cc2CC1=O	0.2
49	CC(C)NC(=O)Nc1ccc2c(c1)CC(=O)N([C@H](C)CO)C[C@H](C)[C@@H](CN(C)S(=O)(=O)c1cccs1)O2	-0.3
50	C[C@@H]1CCCCO[C@@H](CN(C)Cc2ccccc2)[C@H](C)CN([C@H](C)CO)C(=O)c2cc(NC(=O)CCC(F)(F)F)ccc2O1	-0.2
51	C[C@@H]1CN([C@@H](C)CO)C(=O)c2cc(NC(=O)CCC(F)(F)F)ccc2O[C@H]1CN(C)C(=O)Nc1ccc2c(c1)OCO2	1.0
52	C[C@@H]1CN([C@H](C)CO)C(=O)c2cc(NC(=O)CCCN(C)C)ccc2O[C@@H](C)CCCCO[C@H]1CN(C)Cc1ccc2c(c1)OCO2	-1.0
53	C[C@H]1CN([C@@H](C)CO)C(=O)Cc2cc(NC(=O)Cc3ccccc3)ccc2O[C@@H]1CN(C)Cc1ccc(C(F)(F)F)cc1	-0.1
54	C[C@@H]1CN([C@@H](C)CO)C(=O)c2cc(NS(=O)(=O)c3ccc(Cl)cc3)ccc2O[C@H]1CN(C)S(=O)(=O)c1cn(C)cn1	0.7
55	C[C@H]1CCCCO[C@H](CN(C)Cc2ccc(C(=O)O)cc2)[C@@H](C)CN([C@@H](C)CO)C(=O)c2cc(N(C)C)ccc2O1	-0.8
56	Cc1ccc(S(=O)(=O)N(C)C[C@@H]2Oc3c(NC(=O)c4ccc(-c5nccs5)cc4)cccc3C(=O)N([C@H](C)CO)C[C@H]2C)cc1	1.2
57	C[C@H](CO)N1C[C@H](C)[C@H](CN(C)C(=O)c2ccncc2)OCCCC[C@H](C)Oc2ccc(N(C)C)cc2C1=O	-0.1
58	CNC[C@@H]1Oc2c(NS(=O)(=O)c3cn(C)cn3)cccc2C(=O)N([C@H](C)CO)C[C@@H]1C	0.0
59	C[C@@H]1CCCCO[C@@H](CN(C)CC2CCCCC2)[C@@H](C)CN([C@@H](C)CO)C(=O)c2cc(NS(C)(=O)=O)ccc2O1	-1.1
60	C[C@@H]1CN([C@H](C)CO)C(=O)c2cc(NS(=O)(=O)c3ccccc3)ccc2O[C@@H](C)CCCCO[C@H]1CN(C)Cc1ccccc1	-0.8

Next results.
no.	Molecule	A1 apoptosis 2
61	COc1ccc(NC(=O)N(C)C[C@H]2Oc3c(NS(=O)(=O)c4ccc(Cl)cc4)cccc3C(=O)N([C@@H](C)CO)C[C@@H]2C)cc1	-1.0
62	COc1ccc(CN(C)C[C@H]2Oc3ccc(NS(=O)(=O)c4ccc(Cl)cc4)cc3CC(=O)N([C@@H](C)CO)C[C@@H]2C)cc1	-0.9
63	C[C@@H]1CN([C@H](C)CO)C(=O)Cc2cc(NC(=O)CCC(F)(F)F)ccc2O[C@H]1CN(C)C(=O)Nc1ccccc1	-0.9
64	Cc1ccc(S(=O)(=O)Nc2ccc3c(c2)C(=O)N([C@@H](C)CO)C[C@@H](C)[C@@H](CN(C)S(=O)(=O)c2ccc(F)cc2)OCCCC[C@H](C)O3)cc1	-1.4
65	Cc1ccc(S(=O)(=O)N(C)C[C@@H]2Oc3ccc(NS(=O)(=O)c4ccc(Cl)cc4)cc3CC(=O)N([C@@H](C)CO)C[C@H]2C)cc1	-0.4
66	C[C@H](CO)N1C[C@H](C)[C@H](CN(C)Cc2ccc(-c3ccccc3)cc2)Oc2ccc(NC(=O)CCC(F)(F)F)cc2C1=O	2.1
67	Cc1ccc(S(=O)(=O)N(C)C[C@H]2OCCCC[C@H](C)Oc3ccc(NC(=O)Nc4ccc(C(F)(F)F)cc4)cc3C(=O)N([C@@H](C)CO)C[C@@H]2C)cc1	-1.2
68	CNC[C@H]1Oc2ccc(NS(C)(=O)=O)cc2CC(=O)N([C@@H](C)CO)C[C@H]1C	-0.5
69	C[C@@H]1CN([C@H](C)CO)C(=O)Cc2cc(NC(=O)Nc3ccc4c(c3)OCO4)ccc2O[C@@H]1CN(C)CC1CC1	?
70	Cc1ccc(S(=O)(=O)Nc2cccc3c2O[C@@H](CN(C)C(=O)Nc2cccc4ccccc24)[C@@H](C)CN([C@@H](C)CO)C3=O)cc1	-0.7
71	C[C@@H]1CN([C@@H](C)CO)C(=O)Cc2cc(NC(=O)C3CCCCC3)ccc2O[C@H]1CN(C)C(=O)Nc1ccc(C(F)(F)F)cc1	1.3
